# High-throughput results from PubChem BioAssay.
# Sfp PPTase inh – blocks B. subtilis Sfp PPTase activity; Potency, µM, for inactives: max response, negative = inhibition, usual class: inhibitors; Q9F4F7; Biochemical Sfp PPTase activity, qHTS; AID 1490; actives 3.5% (n = 310,000); active = well fitted inhibition curve with a large enough effect; inconclusive = small, poorly fitted or top-dose-only effect, or another doubt; inactive = no such curve, though single readings can be large or run the other way;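 also: the enzyme is Sfp with the accession as filed and its product quenches rhodamine fluorescence; potency is read from the fitted curve at half-maximal effect; 0% = enzyme reaction without inhibitor and -100% = no enzyme wells; top concentration of the series not given in the record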
#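 Sfp 15 nM + cpd, 15 min RT; start w/ rhodamine-CoA 5 uM, BHQ-2-YbbR 12.5 uM (final); 50 mM Hepes pH 7.6, 10 mM MgCl2, 0.01% NP-40, 0.01% BSA; read 525/598 nm at 0 and 30 min.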
# TRPV1 PAM – human TRPV1 potentiation; potentiation, % at 8.33 µM; Q8NER1; AID 540277; TRPV1-expressing cells, Fluo-8 calcium influx, capsaicin EC20 potentiation; host cell line not named in the record; control for the full effect not named in the record; actives 0.02% (n = 320,000); active means potentiation above 80%; inconclusive means 30% to 80%; inactive means below 30%; also: 0% is about no effect
#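 Cells expressing TRPV1 were dye-loaded with Fluo-8 and read kinetically: 10 s baseline, 3 min after compound (agonist portion), then 2 min after EC20 capsaicin (allosteric enhancer portion). Calcium-bound dye fluorescence at 480/520 nm.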
# D2 potentiator – positive allosteric modulators of human D2 dopamine receptor. P14416. DiscoveRx D2 beta-arrestin cells, luminescence, 90 min; 100% = 57 uM dopamine signal. potentiation, % (concentration not given with the values). actives 0.23% (n = 360,000). AID 624464; active = potentiation of 50% or more; inconclusive = 30% to 50%; inactive = 30% or less;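 also: compound concentration not given in the record; tested on top of an EC20 dose of dopamine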
#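 D2 cells co-treated with compound plus 50 nM dopamine (EC20) for 90 min at 37 deg C to detect potentiation. Beta-arrestin recruitment was read as enzyme-fragment luminescence after 1 h at ambient temperature. Full response was set by 57 uM dopamine.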
# PINK1 expr mod – changes PINK1 expression. actives 0.2% (n = 410,000). Potency, µM (series often up to 76.6 µM), inactives show at the top dose activation (PINK1 increase), most hits filed as activators. PINK1 immunofluorescence, high-content cytometry, 24 h; active = well fitted activation curve with a large enough effect; inconclusive = small, poorly fitted or top-dose-only effect; inactive = flat fitted curve, though single readings scatter; cell line not stated here;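 also: potency is read from the fitted curve at half-maximal effect; % of control where 0% means no effect; nearly all actives have a fitted effect of over 65% in size; a mitochondrial uncoupler was the plate control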
#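 PINK1 protein level read as immunofluorescence by microplate cytometer in a fixed, stained stable cell line after 24 h exposure to five compound concentrations, with CCCP as control.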
# D2 agonist – human D2 receptor agonism in beta-arrestin assay | P14416 | DiscoveRx PathHunter D2 beta-arrestin, luminescence, 90 min; 100% = 57 uM dopamine signal | activation, % (concentration not given with the values) | actives 0.084% (n = 360,000); in the data active = activation above about 40%; inconclusive = about 15% to 40%; inactive = below about 15%; also: compound concentration not given in the record; the text of the record calls up to 30% inactive
#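 Agonist mode: compounds alone added to overnight-plated D2 PathHunter cells for 90 min at 37 C, with 57 uM final dopamine (EC100) defining full response. Beta-arrestin recruitment detected by chemiluminescent reagent, read after 1 h at ambient temperature.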
# CtBP-E1A blk – CtBP/E1A binding inhibition; AlphaScreen GST-E1A/His-CtBP binding, 1536-well; hits give low values; control for the full effect not named in the record; activity change, % (test concentration not listed); actives 0.49% (n = 340,000); AID 651724; in the data active means activity change below about -65%; inconclusive means about -30% to -65%; inactive means above about -30%; also: % is scaled to controls: 0 for no effect and ±100 for the full control effect; compound concentration not given in the record
#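 Homogeneous bead-based format: GST-tagged E1A captured on glutathione donor beads, His-tagged CtBP on nickel acceptor beads; compounds precede bead addition by 2 h at 37 °C.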
# Six1-Eya2 inh – Six1/Eya2 interaction inhibition | Q15475+O00167 | AID 651725 | activity change, % (concentration not given with the values) | actives 0.56% (n = 360,000) | AlphaScreen GST-Six1/His-Eya2 binding, biochemical; hits give low values; control for the full effect not named in the record; in the data active = activity change below about -65%; inconclusive = about -30% to -65%; inactive = above about -30%; also: % is scaled to controls: 0 for no effect and ±100 for the full control effect
# Target sequence (O00167 whole entry, looked up): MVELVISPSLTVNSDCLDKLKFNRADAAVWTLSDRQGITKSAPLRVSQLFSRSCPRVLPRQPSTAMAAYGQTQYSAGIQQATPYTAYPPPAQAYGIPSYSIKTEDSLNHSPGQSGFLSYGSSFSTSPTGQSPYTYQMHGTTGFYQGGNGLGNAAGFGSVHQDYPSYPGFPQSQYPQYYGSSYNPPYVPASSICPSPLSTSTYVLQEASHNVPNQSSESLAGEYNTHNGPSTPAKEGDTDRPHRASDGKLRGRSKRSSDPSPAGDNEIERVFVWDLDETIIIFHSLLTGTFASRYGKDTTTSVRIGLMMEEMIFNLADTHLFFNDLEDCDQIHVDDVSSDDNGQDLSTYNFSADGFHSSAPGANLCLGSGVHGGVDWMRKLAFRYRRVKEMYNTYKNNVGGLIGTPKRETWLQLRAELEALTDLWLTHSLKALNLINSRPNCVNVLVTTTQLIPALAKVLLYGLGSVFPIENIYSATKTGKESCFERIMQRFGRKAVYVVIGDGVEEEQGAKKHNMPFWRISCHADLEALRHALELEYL
# Target sequence (Q15475 whole entry, looked up): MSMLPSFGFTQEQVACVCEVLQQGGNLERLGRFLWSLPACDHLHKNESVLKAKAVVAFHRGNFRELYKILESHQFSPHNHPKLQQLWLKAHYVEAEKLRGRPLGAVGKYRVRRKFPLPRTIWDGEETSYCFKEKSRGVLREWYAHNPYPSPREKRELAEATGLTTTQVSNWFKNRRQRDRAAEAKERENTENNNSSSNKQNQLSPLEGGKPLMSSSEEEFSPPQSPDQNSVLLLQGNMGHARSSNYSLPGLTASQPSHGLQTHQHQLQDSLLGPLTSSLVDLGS
#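 GST-Six1 + His-Eya2 (5X stock: 250/500 nM); Tris pH 8.0, 300 mM NaCl, 0.05% BSA, 0.02% Tween 20; GSH donor/Ni acceptor beads; 1 h 37 °C dark; AlphaScreen readout.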
# Numbers without * were called inactive; ? = inconclusive; / = no result given; & = joins results of further samples; [ ] = remark or other dose.
structure,Sfp PPTase inh,TRPV1 PAM,D2 potentiator,PINK1 expr mod,D2 agonist,CtBP-E1A blk,Six1-Eya2 inh
CCC1Nc2ncnc(N3CCCCC3)c2N(Cc2ccc(Cl)cc2)C1=O (centres undefined),/,/,-34.3&-12.7,11.2%&3.1%,-7.8&-10.6,1.2,3.5&-4.2
COCCNC(=O)c1ccc(C)c(NC(=O)C2=C(C)OCCS2)c1,5.8%,0.0,-7.3,0.1%,-3.1,0.0,3.6
COc1ccccc1C(CNC(=O)CN1C(=O)NC(C)(c2ccc3ccccc3c2)C1=O)N1CCCC1 (centres undefined),/,/,-3.6,2.3%,-2.4,-9.1,-0.7
COc1ccc(-n2c3c(cc(C(=O)NCc4ccco4)c2=O)C(=O)CC(C)(C)C3)cc1,10.6%,-12.8,-6.0,1.1%,0.3,-5.8,1.0
NC(CCc1ccccc1)c1csc(Nc2ccc(C(=O)NCCCO)cn2)n1 (centres undefined),/,/,-11.6,0.8%,1.9,-68.9*,?
CCOc1ccc(-c2nn3c(-c4ccc(F)cc4)nnc3s2)cc1,/,/,-14.1,/,-0.9,-0.1,4.2
CCc1c(O)nc(SCC(=O)Nc2nc3ccccc3s2)n(-c2ccc(C)cc2)c1=O,1.7%,14.0,-1.2,-1.0%,-12.3,/,-4.1
CC1(c2cccc(Br)c2)NC(=O)N(CC(=O)Nc2ccc3c(c2)OCCO3)C1=O (centres undefined),/,/,-0.4,2.4%,-5.9,-0.6,-8.3
COc1ccc(C(=O)OCc2c(C)noc2C)cc1,11.4%,-5.5,-7.0,-0.3%,5.2,2.1,-1.5
CCOC(=O)c1cnc2c(cnn2C)c1NCCC(O)C(F)(F)F (centres undefined),-4.9%,-0.3,4.0,0.3%[38.3 µM],-1.9,3.1,0.2
Cc1ccc(NC2CCCN(C(=O)c3ccc(-n4ccnc4)cc3)C2)cc1C (centres undefined),0.3%,-12.4,-12.3,-0.8%,-0.5,39.2,-11.6
CCNC(=S)NNC(=O)c1cc(-c2cccc(OC)c2)nc2ccccc12,-0.7%,-6.3,-16.9,-2.1%,-7.8,-5.5,-9.8
O=C(CCC(=O)N1CCN(C2CCCC2)CC1)Nc1nnc(C(F)(F)F)s1,-8.8%,-6.3,-14.1,-1.3%,-2.4,-2.3,13.6
CCC1CCCCN1C(=O)CCS(=O)(=O)c1ccc2c(c1)CCN2C(C)=O (centres undefined),-2.4%,1.3,-7.5,-0.2%,-2.1,-4.0,3.5
Cc1cc(C)c(S(=O)(=O)N(C)c2ccccc2)c(C)c1,7.6%,?,7.0,5.3%,0.1,29.6,46.9
c1coc(-c2nnc3sc(C4CCCCC4)nn23)c1,35.5µM*,-1.4,-10.2,-0.4%,-2.0,3.4,-2.2
CCN(CC)S(=O)(=O)c1ccc(C(=O)N2CCN(c3ncccn3)CC2)cc1,12.3%,4.7,-7.4,0.8%,-3.3,0.4,-4.7
Cc1ccc(C(=O)COC(=O)c2ccc(O)cc2)cc1,16.6%,10.9,-3.8,2.9%,0.7,-8.8,-2.7
COC(=O)c1ccc(N2C(c3cccc(OC)c3)=Cc3ccc(F)cc3C2c2c(C)[nH]c3ccccc23)cc1 (centres undefined),/,/,/,2.8%,/,3.2,-3.7
CN(Cc1ccncc1)C1CC(=O)N(c2ccc(F)cc2)C1=O (centres undefined),2.1%,8.7,-11.3,1.3%,-2.6,/,6.1

# Arranged by molecular weight (largest number first): some entries from above.
structure,Sfp PPTase inh,TRPV1 PAM,D2 potentiator,PINK1 expr mod,D2 agonist,CtBP-E1A blk,Six1-Eya2 inh
CCOC(=O)c1cnc2c(cnn2C)c1NCCC(O)C(F)(F)F (centres undefined),-4.9%,-0.3,4.0,0.3%[38.3 µM],-1.9,3.1,0.2
CN(Cc1ccncc1)C1CC(=O)N(c2ccc(F)cc2)C1=O (centres undefined),2.1%,8.7,-11.3,1.3%,-2.6,/,6.1
COc1ccc(C(=O)OCc2c(C)noc2C)cc1,11.4%,-5.5,-7.0,-0.3%,5.2,2.1,-1.5

# Other compounds:
structure,Sfp PPTase inh,TRPV1 PAM,D2 potentiator,PINK1 expr mod,D2 agonist,CtBP-E1A blk,Six1-Eya2 inh
Cc1cn(CC(=O)NCc2ccccc2)c(=O)[nH]c1=O,/,/,/,0.5%,-0.2,5.1,0.5
CC1(C)COC(c2cc3c(cc2Br)OCO3)OC1,/,/,-1.4,4.9%,3.6,14.9,10.2
CN(C(=O)CSc1nnc(Cc2ccccc2F)n1N)C1CCCCC1,/,/,-10.1,0.9%,-2.0,4.0,-1.1
CC(=O)[C@@]1(O)CC[C@H]2[C@@H]3CCC4=CC(=O)CC[C@]4(C)[C@H]3[C@@H](O)C[C@@]21C,25.0%,11.4,8.9,2.3%,-4.7,2.5,-3.6
COc1ccc(CCC(=O)N2c3ccccc3CC2C)cc1 (centres undefined),-15.1%,-2.8,10.8,1.8%[38.3 µM],0.6,17.3,9.2
O=C(NCCCN1CCOCC1)/C(=C/c1cccnc1)NC(=O)c1ccccc1,4.8%,-13.6,-4.2,1.2%,-6.0,0.0,-1.2
COC(=O)COc1ccc(S(=O)(=O)N2CCCCCC2)cc1,6.6%,-48.6,1.2,4.9%,3.0,1.8,9.5
O=C(OCc1cn([C@@H]2CN(C(=O)C3CCCCC3)[C@@H](c3ccc(Cl)cc3)C[C@H]2O)nn1)c1ccccc1,/,/,-0.3,2.9%,-11.6,-6.0,5.6
CN1CCN(CC(=O)NC2CCCCC2)CC1,9.8%,4.2,-13.3,1.0%[38.3 µM],-1.0,4.2,3.3
Cc1nnc(SCC(=O)NNC(=O)c2ccco2)n1-c1cccc(Cl)c1,21.2%,0.4,-3.2,2.3%,-5.0,/,0.4
COC(=O)CCCC(=O)N1CCCC(N(C)CCc2ccccc2)C1 (centres undefined),3.8%,3.7,-4.6,-0.7%,-6.8,-8.0,2.9
CCCS(=O)(=O)c1nc(S(=O)(=O)c2ccc(C)cc2)c(NCc2ccco2)s1,-5.6%,-4.5,-22.8,-1.5%,-2.4,-9.7,-11.8
CCCCn1c2c(c(=N)c3c1CCC3)CCC2,-20.2%,-15.0,-12.9,0.2%,-1.8,-1.7,-9.6
Cc1ccc(/C=C2\SC(=S)N(CCCC(=O)N3CCOCC3)C2=O)cc1,-28.3%,-0.5,9.8,4.7%,-1.0,0.2,-5.9
CC1CN(CCOCCSc2ccc(Cl)cc2)CC(C)O1 (centres undefined),-25.0%,-0.5,-62.4,1.8%,-1.2,/,-1.8
CC(NC(=S)Nc1ccc(S(=O)(=O)N2CCOCC2)cc1)C1CC2CCC1C2 (centres undefined),0.9%,-5.1,-26.7,39.8µM*,-2.6,12.9,-3.1
Cc1cc(=O)oc2c1ccc1ccccc12,4.0%,25.6,0.8,-3.3%,-3.1,-3.5,0.8
COc1ccc(S(=O)(=O)N2CCCCCC2)cc1N(C)S(=O)(=O)c1ccccc1,8.3%,-8.9,3.1,0.4%,-2.3,-1.6,7.7
O=c1c(C/C=C/c2ccccc2)c(O)nc2n1CCCS2,18.3%,9.0,4.7,1.3%,-0.3,-9.3,-1.7
COc1cccc(NC(=O)C2CC2)c1,/,29.9,-8.4,0.6%,-1.0,6.2,6.6

# New compounds follow:
# Letters – A = Sfp PPTase inh; B = TRPV1 PAM; C = D2 potentiator; D = PINK1 expr mod; E = D2 agonist; F = CtBP-E1A blk; G = Six1-Eya2 inh
CCOC(=O)COc1cccc2c(=O)n(CC(=O)N3CCN(C(=O)OCC)CC3)ccc12
  A: 13.3%	B: -2.9	C: 4.3	D: 1.3%	E: 5.8	F: -0.4	G: 1.9
O=[N+]([O-])c1cc([N+](=O)[O-])c(Oc2ccc(Cl)c3cccnc23)cc1NN1CCCCC1
  A: -4.1%	B: -12.8	C: -0.7	D: 1.2%	E: -0.3	F: -9.7	G: -15.0
Clc1ccc(-c2nnc(N3CCOCC3)o2)cc1
  A: 6.6%	B: -28.4	C: -3.9	D: -1.6%	E: 5.6	F: 5.4	G: -8.3
Cc1cc(C(=O)NCC2CCCO2)sc1C (centres undefined)
  A: /	B: 0.5	C: -22.7	D: 0.2%	E: -3.4	F: 1.0	G: -0.9
CCOc1ccccc1C(=O)NC(C(=O)Nc1ccccc1N1CCOCC1)C(C)C (centres undefined)
  A: 18.9%	B: -1.2	C: -10.3	D: -0.4%[38.3 µM]	E: -2.4	F: -3.0	G: 0.2
Cc1ccsc1C(=O)N1CCC1(C)C(=O)NS(=O)(=O)c1cccc(F)c1 (centres undefined)
  A: /	B: /	C: -10.7	D: 0.8%	E: -4.2	F: -1.9	G: 10.6
CC(=O)Nc1ccc(S(=O)(=O)NCCSCc2ccccc2Cl)cc1
  A: 30.1%	B: -8.1	C: -8.1	D: 0.7%	E: -3.3	F: -6.3	G: -1.0
CCOC(=O)C(C(=O)OCC)C1N=C(N)N=C2Oc3ccccc3N21 (centres undefined)
  A: -5.7%	B: -14.6	C: -5.4	D: 7.3%[38.3 µM]	E: -0.7	F: 2.5	G: -9.3
C/C(=N\NC(=O)C12CCC(C)(C(=O)O1)C2(C)C)c1ccccc1O (centres undefined)
  A: -7.7%	B: 6.7	C: -8.9	D: 1.0%	E: ?	F: ?	G: -3.4
COc1ccc(NCc2nnc(SCC(=O)Nc3ccc(OC)cc3)n2C)cc1
  A: 10.9%	B: -0.6	C: -3.0	D: 1.2%	E: -0.6	F: -1.4	G: -2.5
CC(C)(C)NC(=O)[C@]1(C)CCC[C@@]2(C)C3CC[C@@]4(C)C[C@]3(CCC21)CC4=O (some centres undefined)
  A: /	B: -11.1	C: -16.5	D: -1.1%	E: -2.2	F: 0.8	G: 3.6

# Entries of single compounds as entered above. Screens in order: Sfp PPTase inh, TRPV1 PAM, D2 potentiator, PINK1 expr mod, D2 agonist, CtBP-E1A blk, Six1-Eya2 inh
# Cc1cc(C(=O)NCC2CCCO2)sc1C (centres undefined) is listed with /, 0.5, -22.7, 0.2%, -3.4, 1.0, -0.9
# Clc1ccc(-c2nnc(N3CCOCC3)o2)cc1 is listed with 6.6%, -28.4, -3.9, -1.6%, 5.6, 5.4, -8.3
# COc1ccc(NCc2nnc(SCC(=O)Nc3ccc(OC)cc3)n2C)cc1 is listed with 10.9%, -0.6, -3.0, 1.2%, -0.6, -1.4, -2.5
# Cc1ccsc1C(=O)N1CCC1(C)C(=O)NS(=O)(=O)c1cccc(F)c1 (centres undefined) is listed with /, /, -10.7, 0.8%, -4.2, -1.9, 10.6
